Cruzain noTriton = blocks cruzain activity in detergent-free assay; P25779; purified cruzain, Z-FR-AMC fluorescence, no detergent; Potency, µM, inactives show max response, negative = inhibition, hits mostly inhibitors; actives 2.3% (n = 200,000); AID 1476; active = well fitted curve in the direction sought with a large enough effect; inconclusive = small, poorly fitted or top-dose-only effect, or another doubt; inactive = no such curve, though single readings can be large; an effect the other way counts as inactive or inconclusive;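 also: plate controls were enzyme without inhibitor for no effect and buffer without enzyme for full effect; nearly all actives have a fitted effect of over 40% in size; top concentration of the series not given in the record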
Target sequence (P25779 123-467 limits assumed): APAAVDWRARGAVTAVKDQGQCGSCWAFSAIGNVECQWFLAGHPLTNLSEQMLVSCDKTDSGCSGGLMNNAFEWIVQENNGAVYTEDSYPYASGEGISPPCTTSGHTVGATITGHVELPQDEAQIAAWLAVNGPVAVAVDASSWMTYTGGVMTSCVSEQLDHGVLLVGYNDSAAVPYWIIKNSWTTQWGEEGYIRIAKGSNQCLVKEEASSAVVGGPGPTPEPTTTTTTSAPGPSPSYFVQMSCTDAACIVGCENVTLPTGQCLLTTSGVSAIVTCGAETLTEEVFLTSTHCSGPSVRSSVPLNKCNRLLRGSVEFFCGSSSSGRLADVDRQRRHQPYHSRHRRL
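Detergent-free condition (0.00005% Triton X-100) in acetate buffer pH 5.5 with DTT. 1.5 nM enzyme and compound were pre-mixed 15 min, then 2 uM Z-FR-AMC substrate added; reaction progress from fluorescence change between first and third reads (60 s).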
2A StopGo = FMDV 2A StopGo reporter, luciferase signal; human cells with a luciferase reporter of 2A StopGo recoding; control for the full effect not named in the record; Potency, µM (highest dose often 57.9 µM), inactives show at the highest dose signal change, negative = less light; actives 1.2% (n = 410,000); AID 1159524; active = well fitted falling curve with a large enough effect; inconclusive = small, poorly fitted or top-dose-only effect; inactive = no such curve, though single readings can be large or run the other way; tested in HEK293T cells; also: % is scaled to controls: 0 for no effect and ±100 for the full control effect; nearly all actives have a fitted effect of over 45% in size; luciferase light after 4 h
MARV entry inh = blocks Marburg virus binding to or entry into cells | Marburg virus pseudotyped entry inhibition, cell reporter; control for the full effect not named in the record; about a third of the inactives were read at about 46 µM | Potency, µM (series often up to 37.8 µM), inactives show at the top dose activity change, negative = inhibition, hits mostly inhibitors | actives 1.8% (n = 300,000) | AID 540276; active = well fitted inhibition curve with a large enough effect; inconclusive = small, poorly fitted or top-dose-only effect, or effect the other way; inactive = flat fitted curve, though single readings scatter; tested in HEK293 cells; about a fifth of its hits are not listed in these tables; also: % is scaled to controls: 0 for no effect and ±100 for the full control effect; luciferase read-out
SARS PLP yeast = blocks SARS-CoV papain-like protease in a yeast assay. S. cerevisiae expressing SARS-CoV PLpro, growth rescue; control for the full effect not named in the record. Potency, µM (top dose mostly 32.9 µM), without a hit: at the highest dose activity, positive = growth rescue. actives 0.19% (n = 330,000); also: 0% is about no effect; nearly all actives have a fitted effect of over 55% in size; growth read by luminescence after 48 h
NS1 function inh = blocks influenza NS1 protein function; Potency, µM (top dose mostly 46.1 µM), for the others: top-dose activity, positive = more growth; S. cerevisiae slowed by influenza A NS1, growth recovery by OD600; actives 0.4% (n = 270,000); also: actives are rising curves; nearly all actives have a fitted effect of over 50% in size
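Compounds were scored for reversing the slow growth caused by influenza A NS1 in S. cerevisiae, measured by optical density at 600 nm. Assay medium contained 2% galactose at pH 6.0; NS1-free yeast of the same strain were the positive control.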
RE007 growth inh = less growth of the S. pombe RE007 Vpr strain; S. pombe RE007 Vpr strain, BacTiter-Glo ATP luminescence, 24 h; control for the full effect not named in the record; Potency, µM (highest dose often 92.2 µM), for the others: at the highest dose activity change, negative = less growth; actives 0.21% (n = 360,000); active = well fitted falling curve with a large enough effect; inconclusive = small, poorly fitted or top-dose-only effect; inactive = no such curve, though single readings can be large or run the other way;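 also: % is scaled to controls: 0 for no effect and ±100 for the full control effect; nearly all actives have a fitted effect of over 50% in size; the assay follows cell death caused by Vpr and the record does not say whether a fall means rescue or toxicity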
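Fission yeast RE007 carrying one integrated HIV-1 vpr copy, seeded at OD 0.01 in PMG+AL medium with 23 nL pinned compound. Grown 24 h at 30 degrees; viability read by BacTiter-Glo luminescence after 5 min.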
Cruzain inh Det = inhibitors of Trypanosoma cruzi cruzain with detergent | purified cruzain, Z-FR-AMC fluorescence, 0.01% Triton | Potency, µM, without a hit: max response, negative = inhibition, hits mostly inhibitors | actives 0.43% (n = 200,000) | P25779; active = well fitted curve in the direction sought with a large enough effect; inconclusive = small, poorly fitted or top-dose-only effect, or another doubt; inactive = no such curve, though single readings can be large; an effect the other way counts as inactive or inconclusive;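 also: plate controls were neutral wells for no effect and buffer without enzyme for full effect; nearly all actives have a fitted effect of over 40% in size; top concentration of the series not given in the record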
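Detergent-containing run (0.01% Triton X-100) in acetate buffer pH 5.5 with 5 mM DTT: enzyme at 1.5 nM final, 15 min compound preincubation at room temperature, then 2 uM Z-FR-AMC substrate. Activity taken as 60 s fluorescence increase at 360/450 nm.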
LASV entry inh = Lassa virus entry inhibition; Potency, µM (series often up to 37.9 µM), inactives show at the highest dose activity change, negative = inhibition, hits mostly inhibitors; Lassa virus pseudotype entry inhibition, cell reporter; control for the full effect not named in the record; actives 1.2% (n = 300,000); active means well fitted inhibition curve with a large enough effect; inconclusive means small, poorly fitted or top-dose-only effect, or effect the other way; inactive means flat fitted curve, though single readings scatter; tested in HEK293 cells; also: % is scaled to controls: 0 for no effect and ±100 for the full control effect; nearly all actives have a fitted effect of over 50% in size; luciferase read-out
The depositor's hits bear a star; ? = inconclusive; / = not tested or not shown; & = joins results of further samples; [ ] = another dose, or the depositor's remark. Unless noted, calls follow the shape of the dose curve; as a rule, active means well fitted rising curve with a large enough effect; inconclusive means small, poorly fitted or top-dose-only effect; inactive means no such curve, though single readings can be large or run the other way. Potency is read from the fitted curve at half-maximal effect.

Results follow in this order: Cruzain noTriton	2A StopGo	MARV entry inh	SARS PLP yeast	NS1 function inh	RE007 growth inh	Cruzain inh Det	LASV entry inh
- CCN(CC)CC(O)CCCCCCCCC(=O)OC (stereo unspecified)
→ /	-5.7%	25.0%	-1.1%	6.3%	1.3%	/	?
- COc1cc2ccccc2cc1C(=O)O
→ -5.1%	-3.2%	8.9%	-15.9%	-1.7%	3.9%	2.8%	17.8%
- C/C=C(/C(=C/C)c1ccc(O)cc1)c1ccc(O)cc1
→ -9.2%&-11.8%	?	-29.8%&-29.8%&-29.8%&-29.8%&-29.8%&-29.8%	-46.0%	-20.7%	2.8%[18.4 µM]	-8.0%&-12.0%	25.9µM*
- Cc1cc(C)c2nc(C(F)(F)F)c(C#N)c(N)c2c1
→ 1.5%	-7.6%	?	2.4%	-1.5%	3.6%	-1.9%	13.0%
- COc1ccc(-n2c(C)nc3cc(C(=O)NCc4ccc5c(c4)OCO5)ccc32)cc1
→ -3.6%	43.2%[activator]	3.0%	-16.2%	-26.2%	10.9%	-6.2%	?
- CCSc1nnc(NC(=O)CSc2nnc(CNC(=O)c3ccccc3F)o2)s1
→ ?	-6.0%	-16.0%	-0.4%	?	10.6%	-0.8%	11.9%
- Cc1ccc(-c2noc(CCC(=O)NC3CCN(Cc4ccccc4)CC3)n2)cc1
→ -2.0%	-12.6%	?	6.8%	2.3%	0.4%	4.6%	-13.4%
- Cc1nn2c(=O)cc(COC(=O)c3ccc(NC(=O)c4cccc(Br)c4)cc3)nc2s1
→ -11.1%	17.8µM*	/	/	/	/	-0.5%	14.5%[46.1 µM]
- CCN(CC)C(=O)CSc1nnc(-c2ccccc2)o1
→ 3.3%	/	-9.8%	-5.4%	-5.5%	1.4%	6.2%	3.4%
- CCOC(=O)N1CCN(C(=O)COc2cccc3c2CCN(Cc2ccccc2F)C3=O)CC1
→ ?	0.0%	-32.0%	0.5%	-2.7%	-8.1%	-0.3%	?
- COc1ccccc1NC(=O)CCc1nnc2ccc(N3CCN(C)CC3)nn12
→ /	-5.9%	/	-1.9%	8.7%	-0.2%	/	/
- CCO[C@@H]1OC(C(=O)NC2CC2)=C[C@H](c2ccc(Br)cc2)[C@H]1CCCO
→ /	-14.2%	/	1.7%	0.7%	-4.2%	/	/
- CCCC1S/C(=N/N=C/c2ccc(OC)cc2)N(Cc2ccccc2)C1=O (stereo unspecified)
→ -2.3%	2.1%	-2.7%[46.1 µM]	1.3%	-4.0%	18.7%	-3.8%	?
- O=C1CCCc2nc(N3CCN(C(=O)c4ccco4)CC3)ncc21
→ /	23.6%	?	-7.0%	14.1%	-3.7%	/	13.9%[46.1 µM]
- CCOc1cc(S(=O)(=O)N(CC)CC)ccc1F
→ -7.6%	18.3%	2.8%	-12.6%	-4.0%	13.6%	3.1%	-1.0%
- COc1cc(F)ccc1S(=O)(=O)N1CCN(Cc2ccccc2)CC1
→ /	-20.4%	-6.8%	3.7%	6.0%	4.5%	/	1.9%
- NC(=O)c1ccccc1N/C=C/C(=O)c1cccs1
→ -10.9%	-21.7%	?	?	-17.6%	?	-3.8%	?
- Cc1nc(C)c(C(=O)C2=C(O)C(=O)N(CCN(C)C)C2c2cccs2)s1 (stereo unspecified)
→ -6.7%	-5.4%	-4.2%	-1.1%	5.8%	0.4%	0.8%	7.2%
- COC(=O)c1ccccc1NC(=O)C1CCN(C(=O)N2CCOc3ccccc32)CC1
→ /	-22.8%	/	-2.6%	-30.1%	0.3%	/	/
- CCCc1nc(SCC(=O)N2CCc3ccccc32)c2c(C)c(C)sc2n1
→ -13.2%	/	/	-1.1%	25.4%	/	0.2%	/
- Cc1cc(NC(=O)CN2CCN(S(=O)(=O)c3ccc4ccccc4c3)CC2)no1
→ -3.6%	-3.0%	6.1%	6.8%	-15.6%	0.2%	-0.4%	5.0%
- CCOC(=O)C1=C(O)/C(=C/c2ccc(-c3ccccc3C(=O)O)o2)SC1=Nc1ccc(C)cc1
→ 7.0%	?	1.7%	-2.9%	-64.9%	12.6%	-3.1%	/
- COc1cc2c3c(c1)c(C1=NC(=S)NC1=O)c(O)n3C(C)(C)C=C2C
→ 27.6%	6.8%	-18.1%	14.1%	8.2%	2.4%	3.2%	0.8%
- Cc1ccc(C(=O)Cn2c(-c3ccccc3)noc2=O)cc1
→ /	11.1%	/	0.7%	3.3%	2.9%	/	/
- Cc1cc(C)c2c(NC(=S)NC(=O)c3ccccc3)n[nH]c2n1
→ /	-1.6%	/	-0.2%	3.0%	-13.4%	/	/
- O=C1C(C=NCC2CCCO2)=C(O)c2ccccc21 (stereo unspecified)
→ -7.7%	24.9%	11.9%	2.4%	-3.0%	7.7%	-8.2%	?
- COc1ccc(CCNS(=O)(=O)c2cn(C)c(=O)n(C)c2=O)cc1
→ -3.1%	-21.9%	/	2.0%	2.8%	-2.6%	3.6%	/
- O=C(CN(C(=O)CCC(=O)Nc1nccs1)c1ccc2c(c1)OCO2)NCc1ccccc1
→ /	13.2%	-22.8%[46.1 µM]	1.6%	2.8%	-7.1%	/	-21.9%[46.1 µM]
- COc1ccc(C(c2nnnn2CCc2ccccc2)N2CCN(C3CCCC3)CC2)cc1OC (stereo unspecified)
→ 6.1%	0.4%	2.1%	2.3%	-6.4%	-6.7%	4.5%	4.7%
- CC(=O)c1cc2c(cc1NC(=O)CSc1nc3ccc(C)cc3[nH]1)OCO2
→ -8.5%	?	-24.5%	15.3%	2.6%	-10.1%	-17.8%	-15.5%
- Cn1c(=O)c2c(nc(SCc3ccccc3)n2Cc2ccc(Cl)cc2)n(C)c1=O
→ 4.7%	?	-22.3%[46.1 µM]	14.7%	-1.0%	-7.1%	-6.7%	?
- CCCC12CN3CC(C)(CN(C1)C3c1ccc(OC(C)C)cc1)C2=O (stereo unspecified)
→ 2.1%	-10.8%	6.4%	0.3%	0.4%	4.1%	-3.2%	6.8%
- O=C(O)c1cnn(-c2nc(-c3ccc(Cl)cc3)cs2)c1C(F)(F)F
→ /	11.4%	?	-5.5%	-74.3%	1.0%	/	15.1%[46.1 µM]
- O=C(CC1C(=O)N(c2ccc(F)cc2)C(=O)N1Cc1ccc2c(c1)OCO2)Nc1ccc(F)cc1 (stereo unspecified)
→ -0.7%	-2.1%	-7.1%[46.1 µM]	/	/	/	-4.2%	-13.4%[46.1 µM]
- CCCCN(C)CCNC(=O)C1CCCN(S(=O)(=O)c2ccc3c(c2)oc(=O)n3C)C1 (stereo unspecified)
→ -8.9%	-1.8%	3.1%[46.1 µM]	/	/	/	-5.0%	9.3%[46.1 µM]
- Cn1c(C(=O)NCCN2CCCCCC2)cc2c(=O)n(C)c3ccccc3c21
→ 7.94µM*	-8.0%	-5.8%	5.7%	0.0%	-7.7%	10µM*	/
- CC(=O)Nc1ccc(C=NNC(=O)C2CC2)cc1
→ /	8.7%	14.9%[46.1 µM]	/	/	-8.8%	/	-4.0%[46.1 µM]
- N#CC1C(=O)NC(c2ccccc2)=CC1c1ccccc1 (stereo unspecified)
→ /	-18.0%	?	/	/	-2.1%	/	-25.9%[46.1 µM]
- O=C(Nc1ccc(Cl)cc1)N1CCN(c2ccc3nnc(-c4ccccc4)n3n2)CC1
→ ?	-6.8%	-26.4%[46.1 µM]	/	/	/	-4.7%	/
- CCC(C(=O)OC)n1c(-c2ccccc2)nc2ccccc2c1=O (stereo unspecified)
→ /	-19.9%	/	-4.0%	-38.7%	4.6%	/	/
- Cc1ccccc1CS(=O)(=O)Cc1ccc(C(=O)NC2CCCC2)o1
→ /	-0.7%	/	-1.3%	-11.3%	-2.1%	/	/
- COC(=O)CS(=O)(=O)c1cccc2cccnc12
→ /	-19.3%	8.1%	0.9%	5.1%	12.4%	/	13.7%
- CC12CCC(c3c1nc1ccccc1[n+]3[O-])C2(C)C (stereo unspecified)
→ -0.5%	-1.8%	12.4%	8.0%	-0.8%	3.9%	0.2%	?
- CCc1ccc(OCC(=O)OC(C)C(=O)NC2CC2)cc1 (stereo unspecified)
→ /	-10.8%	/	0.2%	1.6%	7.1%	/	/
- CC(C)(C)c1ccc(C(=O)C2CCCN(C(=O)CCn3cncn3)C2)cc1 (stereo unspecified)
→ /	-17.2%	/	-2.3%	8.1%	-1.7%	/	/
- COc1cc(/C=C/C(=O)N2CCN(c3n[nH]c(=O)[nH]c3=O)CC2)cc(OC)c1OC
→ /	3.9%	5.9%	-0.9%	/	15.0%	/	0.6%
- Cc1c(C(=O)N2CCCC2)sc(NC(=O)c2ccc(Cl)cc2)c1C#N
→ 3.1%	-11.6%	-12.8%	-5.4%	-8.2%	-8.3%	-12.0%	-13.0%
- Cc1cc(C)cc(NC(=O)Cc2ccc(S(=O)(=O)N3CCCC3)s2)c1
→ /	-3.6%	?	-2.2%	/	40.6%	/	-8.3%
- COc1ccccc1N1CC(C(=O)Nc2ccc3c(c2)OCO3)CC1=O (stereo unspecified)
→ /	8.3%	9.8%[46.1 µM]	0.2%	/	14.6%	/	2.2%

Some entries already given with just RE007 growth inh.
SMILES | RE007 growth inh
CCc1ccc(OCC(=O)OC(C)C(=O)NC2CC2)cc1 (stereo unspecified) | 7.1%
CC(C)(C)c1ccc(C(=O)C2CCCN(C(=O)CCn3cncn3)C2)cc1 (stereo unspecified) | -1.7%

Bioassay records deposited in PubChem by National Center for Advancing Translational Sciences (NCATS).
